Vaccinia inh = Vaccinia orthopox stage-specific inhibition. 89,000 tested, 0.01% active. Vaccinia-infected cells, mCherry/Venus stage reporter fluorescence; stronger effect = lower value; some inactives read as strong as hits. activity change (mCherry), % (test concentration not listed). AID 1053133;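 active = mCherry past -33% and 40 or more points under the early reporter, replicates agreeing; inconclusive = past -33% without that gap or agreement; tested in A549 cells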;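 note: scaled between vehicle wells and reference inhibitor wells; 23 nL library stock went into each well; one replicate is shown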
Vaccinia inh Venus = also measured in Vaccinia inh; calls as there; activity change (Venus), %; measured here: Venus reporter, other viral stage;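 negative = less Venus signal; first of two replicates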
Starred values were filed as active, the others as inactive; ? = inconclusive; . = not tested or not shown; & = joins results of further samples.

entry	SMILES	Vaccinia inh	Vaccinia inh Venus
1	COc1ccc(-c2ccc([C@H]3[C@H](CO)N4C(=O)CN(C(=O)C5CCOCC5)C[C@@H]34)cc2)cc1	-28	-20
2	O=C(CCN1CCCCC1)NCC[C@@H]1CC[C@@H](NC(=O)c2ccc(F)cc2)[C@@H](CO)O1	1	-1
3	CN1C(=O)c2cc(NC(=O)c3ccccc3Cl)ccc2OC[C@H]2O[C@H](CC(=O)NCC(F)(F)F)CC[C@H]21	7	15
4	COCC(=O)N1CC2(C1)[C@H](c1ccc(-c3cccc(F)c3)cc1)[C@H](CO)N2C(=O)COC	-6	0
5	CC(C)CC#Cc1cnc2c(c1)C(=O)N([C@H](C)CO)C[C@H](C)[C@H](CN(C)S(C)(=O)=O)O2	13	-1
6	CCCNC(=O)C[C@H]1CC[C@H]2[C@@H](COc3ccc(NC(=O)Nc4cccc(C)c4)cc3C(=O)N2C)O1	5	-2
7	C[C@H](O)C#Cc1ccc2c(c1)O[C@@H](CN(C)CC1CCCC1)[C@H](C)CN([C@@H](C)CO)S2(=O)=O	-16	-25
8	C[C@H]1CN([C@@H](C)CO)C(=O)c2cc(NC(=O)c3ccncc3)ccc2O[C@@H]1CN(C)S(=O)(=O)c1ccc(Cl)cc1	-2	-1
9	C[C@@H]1CCCCO[C@@H](CN(C)C(=O)Nc2ccc(F)cc2)[C@H](C)CN([C@@H](C)CO)C(=O)c2cc(NC(=O)Nc3ccc(C(F)(F)F)cc3)ccc2O1	-16	-5
10	O=C1O[C@@H](c2ccccc2)[C@@H](c2ccccc2)N2[C@@H](c3ccccc3OCCO)[C@]3(C(=O)Nc4ccc(C#CCCO)cc43)[C@@H](C(=O)N3CCCCCCC3)[C@H]12	5	9
11	COc1ccc2c3c([nH]c2c1)[C@@H](CO)N(C(=O)CN(C)C)CC31CCN(C(=O)c2ccncc2)CC1	21	9
12	C[C@@H]1CN([C@@H](C)CO)C(=O)c2cc(-c3ccccc3F)cnc2O[C@@H]1CN(C)C(=O)C1CCCCC1	5	9
13	C/C=C/c1ccc2c(c1)O[C@H](CN(C)C(=O)c1ccccn1)[C@@H](C)CN([C@H](C)CO)S2(=O)=O	19	9
14	CC(C)C#Cc1ccc2c(c1)O[C@H](CN(C)C(=O)c1ccncc1)[C@@H](C)CN([C@H](C)CO)S2(=O)=O	-5	-5
15	CN(C)C(=O)c1cccc(-c2ccc3c(c2)[C@H]2[C@H](CCN2C(=O)c2ccccc2F)[C@@H](CO)N3)c1	-8	-16
16	C[C@@H]1CN([C@@H](C)CO)C(=O)Cc2cc(NS(C)(=O)=O)ccc2O[C@@H]1CN(C)Cc1ccc(Oc2ccccc2)cc1	-19	-15
17	CCNC(=O)[C@H]1[C@H](CO)[C@H]2Cn3c(ccc(-c4cncnc4)c3=O)[C@H]2N1C(=O)c1ccccc1F	5	3
18	COc1ccc(NC(=O)N(C)C[C@@H]2Oc3ccc(NC(=O)C4CC4)cc3C(=O)N([C@H](C)CO)C[C@H]2C)cc1	6	4
19	CC(=O)N(C)C[C@@H]1Oc2cc(C#CCC(C)C)ccc2S(=O)(=O)N([C@@H](C)CO)C[C@@H]1C	-8	-1
20	COCC(=O)Nc1ccc2c(c1)C(=O)N(C)C[C@H](OC)[C@H](C)CN(Cc1ccccn1)[C@@H](C)CO2	-2	6

Retrieved one by one from the list above:
entry	SMILES	Vaccinia inh	Vaccinia inh Venus
5	CC(C)CC#Cc1cnc2c(c1)C(=O)N([C@H](C)CO)C[C@H](C)[C@H](CN(C)S(C)(=O)=O)O2	13	-1
7	C[C@H](O)C#Cc1ccc2c(c1)O[C@@H](CN(C)CC1CCCC1)[C@H](C)CN([C@@H](C)CO)S2(=O)=O	-16	-25

Later entries.
entry	SMILES	Vaccinia inh	Vaccinia inh Venus
21	C[C@H]1CN([C@@H](C)CO)C(=O)c2cc(NC(=O)C3CCCCC3)ccc2O[C@@H]1CN(C)S(=O)(=O)c1ccc(F)cc1	-1	1
22	Cc1ccccc1-c1cnc2c(c1)C(=O)N([C@H](C)CO)C[C@H](C)[C@H](CN(C)C(=O)c1ccncc1)O2	0	1
23	CO[C@@H]1CN(C)C(=O)c2cc(NC(=O)c3ccccc3)ccc2OC[C@H](C)N(C(C)=O)C[C@H]1C	9	5
24	C[C@@H]1CN([C@@H](C)CO)C(=O)c2cccc(NS(=O)(=O)c3ccc(Cl)cc3)c2O[C@H]1CN(C)CC1CC1	6	5
25	CO[C@@H]1CN(C)C(=O)c2cc(NC(=O)C3CC3)ccc2OC[C@H](C)N(CC2CCOCC2)C[C@H]1C	5	12
26	Cc1noc(C)c1NC(=O)N(C)C[C@H]1OCCCC[C@H](C)Oc2ccc(N(C)C)cc2C(=O)N([C@H](C)CO)C[C@H]1C	6	5
27	CCCNC(=O)N1C[C@H]2[C@@H](c3ccccc31)[C@@H](CO)N2Cc1ccc(F)cc1	0	7
28	CCCNC(=O)N(C)C[C@@H]1Oc2cc(C#CCC(C)C)ccc2S(=O)(=O)N([C@H](C)CO)C[C@@H]1C	-18	-15
29	CO[C@@H]1CN(C)C(=O)c2cc(NS(=O)(=O)CC(F)(F)F)ccc2OC[C@@H](C)N(Cc2ccccn2)C[C@@H]1C	8	13
30	COc1ccc(CN(C)C[C@@H]2OCCCC[C@H](C)Oc3ccc(N(C)C)cc3C(=O)N([C@H](C)CO)C[C@@H]2C)cc1	-23	-14
31	CCCC#Cc1cnc2c(c1)C(=O)N([C@H](C)CO)C[C@@H](C)[C@@H](CN(C)C(=O)C1CCC1)O2	-20	-11
32	O=C(C[C@@H]1CC[C@@H]2[C@H](COC[C@H](O)CN2S(=O)(=O)c2ccc(Oc3ccccc3)cc2)O1)NCCN1CCCCC1	-22	-16
33	C[C@@H]1CN([C@@H](C)CO)C(=O)c2cccc(NC(=O)C3CCOCC3)c2O[C@H]1CN(C)C(=O)Nc1ccc(C(F)(F)F)cc1	26	19
34	CNC[C@H]1Oc2ccc(NS(=O)(=O)c3ccc(F)cc3)cc2C(=O)N([C@H](C)CO)C[C@@H]1C	-1	0
35	COc1ccc(NC(=O)N2C[C@@H]3N[C@H](C2)[C@@H]3c2ccc(-c3ccc(OC)cc3)cc2)cc1	?	.
36	CO[C@H]1CN(C)C(=O)c2ccc(NC(=O)C3CCCC3)cc2OC[C@H](C)N(C(=O)CC2CC2)C[C@@H]1C	-8	-1
37	CC(C)NC(=O)N(C)C[C@@H]1OCCCC[C@H](C)Oc2ccc(NC(=O)Cc3ccccc3)cc2C(=O)N([C@@H](C)CO)C[C@H]1C	-3	-10
38	CC(C)NC(=O)N(C)C[C@H]1Oc2ccc(NC(=O)NC3CCCCC3)cc2C(=O)N([C@H](C)CO)C[C@H]1C	10	5
39	C[C@@H]1CCCCO[C@H](CN(C)Cc2ccc3c(c2)OCO3)[C@H](C)CN([C@@H](C)CO)C(=O)c2cc(NC(=O)c3ccncc3)ccc2O1	-24	-22
40	C[C@@H]1CCCCO[C@H](CN(C)C)[C@@H](C)CN([C@@H](C)CO)C(=O)c2cc(NS(=O)(=O)c3ccc(Cl)cc3)ccc2O1	-9	3

5 compounds from above, ordered by molecular weight, ascending:
entry	SMILES	Vaccinia inh	Vaccinia inh Venus
23	CO[C@@H]1CN(C)C(=O)c2cc(NC(=O)c3ccccc3)ccc2OC[C@H](C)N(C(C)=O)C[C@H]1C	9	5
25	CO[C@@H]1CN(C)C(=O)c2cc(NC(=O)C3CC3)ccc2OC[C@H](C)N(CC2CCOCC2)C[C@H]1C	5	12
28	CCCNC(=O)N(C)C[C@@H]1Oc2cc(C#CCC(C)C)ccc2S(=O)(=O)N([C@H](C)CO)C[C@@H]1C	-18	-15
36	CO[C@H]1CN(C)C(=O)c2ccc(NC(=O)C3CCCC3)cc2OC[C@H](C)N(C(=O)CC2CC2)C[C@@H]1C	-8	-1
21	C[C@H]1CN([C@@H](C)CO)C(=O)c2cc(NC(=O)C3CCCCC3)ccc2O[C@@H]1CN(C)S(=O)(=O)c1ccc(F)cc1	-1	1

(listing goes on)
entry	SMILES	Vaccinia inh	Vaccinia inh Venus
41	C[C@H]1CN([C@@H](C)CO)S(=O)(=O)c2ccc(-c3ccccc3)cc2O[C@@H]1CN(C)C(=O)c1ccc2c(c1)OCO2	-24	-14
42	Cc1ccc(S(=O)(=O)Nc2ccc3c(c2)C(=O)N([C@H](C)CO)C[C@@H](C)[C@@H](CN(C)C(=O)Nc2ccc(F)cc2)O3)cc1	-4	-5
43	C[C@H](CO)N1C[C@H](C)[C@@H](CN(C)S(=O)(=O)c2ccc(Cl)cc2)Oc2ccc(NC(=O)Cc3ccccc3)cc2CC1=O	?	.
44	C[C@@H]1CN([C@H](C)CO)C(=O)c2cc(NC(=O)Nc3ccc4c(c3)OCO4)ccc2O[C@H]1CN(C)Cc1ccc(C(=O)O)cc1	11	6
45	CCCN1[C@@H]2c3ccc(-c4ccccc4)c(=O)n3C[C@H]1[C@H](CO)[C@H]2C(=O)N1CCCCC1	19	2
46	C[C@@H]1CN([C@@H](C)CO)C(=O)CCCn2nncc2CO[C@@H]1CN(C)C(=O)Nc1ccc2c(c1)OCCO2	16	7
47	C[C@H](CO)N1C[C@H](C)[C@@H](CN(C)Cc2ccncc2)Oc2ccc(NS(=O)(=O)c3ccc(Cl)cc3)cc2CC1=O	1	-5
48	CO[C@H]1CN(C)C(=O)c2ccc(NC(=O)Nc3ccc(Cl)cc3)cc2OC[C@@H](C)N(C(=O)Nc2c(C)noc2C)C[C@H]1C	1	-1
49	COc1ccc2c3c([nH]c2c1)[C@H](CO)N(C(=O)c1ccccc1)CC31CN(C)C1	-17	-15
50	C[C@@H]1CN([C@H](C)CO)C(=O)Cc2cc(NC(=O)Cc3cn(C)c4ccccc34)ccc2O[C@@H]1CN(C)C(=O)Nc1ccc2c(c1)OCO2	13	12
51	C[C@@H]1CN([C@H](C)CO)C(=O)c2ccccc2-c2ccccc2CO[C@@H]1CN(C)Cc1ccc(-c2ccccc2)cc1	?	.
52	CC(C)(O)c1cn([C@H]2C[C@@H]3O[C@@H](CO)CC[C@@H]3O[C@@H]2CCc2ccc(-c3cccnc3)cc2)nn1	33	24
53	COCC(=O)Nc1ccc2c(c1)[C@@H]1C[C@@H](CC(=O)N(C)C)O[C@@H](CO)[C@@H]1O2	4	2
54	CCC(=O)Nc1ccc2c(c1)C(=O)N(C)[C@@H]1CC[C@@H](CC(=O)NC3Cc4ccccc4C3)O[C@H]1CO2	1	5
55	O=C(C[C@@H]1CC[C@@H](NC(=O)c2ccccn2)[C@@H](CO)O1)NCc1cccc(F)c1	14	8
56	C/C=C/c1ccc([C@H]2[C@@H](CO)N(CC3CCCCC3)[C@H]2CNC(C)=O)cc1	-7	1
57	Cc1noc(C)c1NC(=O)N(C)C[C@H]1Oc2ccc(NC(=O)Nc3ccc(C(F)(F)F)cc3)cc2CC(=O)N([C@H](C)CO)C[C@H]1C	13	8
58	O=C(Nc1ccc(F)cc1)N1CC(=O)N2[C@H](CO)[C@H](c3ccc(C#CC4CC4)cc3)[C@@H]2C1	-26	-18
59	C[C@H]1CN([C@@H](C)CO)C(=O)c2cccc(NS(=O)(=O)c3ccccc3)c2O[C@H]1CN(C)Cc1ccccc1	12	8
60	C[C@@H]1CN([C@@H](C)CO)C(=O)c2cc(/C=C/c3ccccc3)cnc2O[C@H]1CN(C)Cc1ccc2c(c1)OCO2	?	.
61	C[C@H]1CN([C@@H](C)CO)C(=O)c2cc(C#Cc3ccccc3F)cnc2O[C@H]1CN(C)S(=O)(=O)c1ccccc1F	-21&-28	-14&-19
62	C[C@@H](O)C#Cc1ccc2c(c1)O[C@@H](CN(C)C)[C@@H](C)CN([C@@H](C)CO)S2(=O)=O	8	-4
63	CNC[C@H]1Oc2ncc(C#Cc3cccc(OC)c3)cc2C(=O)N([C@H](C)CO)C[C@H]1C	-16	0
64	C[C@@H]1CCCCO[C@@H](CN(C)Cc2ccc(C(F)(F)F)cc2)[C@H](C)CN([C@H](C)CO)C(=O)c2cc(NC(=O)c3ccncc3)ccc2O1	?	.
65	CN1C(=O)c2cc(NC(=O)Nc3ccc(F)cc3)ccc2OC[C@@H]2O[C@@H](CC(=O)NC3CCC3)CC[C@H]21	7	-1
66	Cc1noc(C)c1NC(=O)Nc1ccc2c(c1)CC(=O)N([C@H](C)CO)C[C@H](C)[C@@H](CN(C)C(=O)Nc1ccc(F)cc1)O2	3	2
67	O=C(Nc1ccc2c(c1)OCO2)N[C@@H]1CC[C@@H](CCNC(=O)C2CCC2)O[C@@H]1CO	10	9
68	O=C(O)[C@@H]1[C@@H](CO)[C@@H]2Cn3c(ccc(-c4ccccc4)c3=O)[C@@H]2N1CCc1ccccc1	-1	4
69	O=C(NCC[C@H]1CC[C@H](NS(=O)(=O)Cc2ccccc2)[C@H](CO)O1)C1CCC1	9	4
70	Cc1ccccc1-c1cnc2c(c1)C(=O)N([C@@H](C)CO)C[C@H](C)[C@H](CN(C)Cc1cccnc1)O2	-5	-10
71	CC(C)NC(=O)N1C[C@H]2[C@@H](c3ccccc31)[C@@H](CO)N2C(=O)C1CCCC1	11	-3
72	Cc1ccc(S(=O)(=O)N(C)C[C@@H]2Oc3c(NC(=O)Nc4c(C)noc4C)cccc3C(=O)N([C@H](C)CO)C[C@@H]2C)cc1	-2	-9
73	C[C@H](CO)N1C[C@H](C)[C@@H](CN(C)C(=O)C2CCCCC2)Oc2ncc(-c3ccccc3)cc2C1=O	-13	-24
74	O=C1CSC(c2ccccc2)N1c1cccc(Cl)c1 (stereo not drawn)	13	15
75	O=C(NCC1CC1)[C@@H]1[C@@H](CO)[C@@H]2Cn3c(ccc(C4=CCCC4)c3=O)[C@@H]2N1C(=O)C1CC1	3	9
76	C[C@@H]1CCCCO[C@H](CN(C)C(=O)NC2CCCCC2)[C@H](C)CN([C@@H](C)CO)C(=O)c2cc(NC(=O)Nc3cccc4ccccc34)ccc2O1	22	24
77	COCC(=O)N1[C@H](CO)[C@@H](c2ccccc2)C12CN(C(=O)c1ccccc1)C2	-4	1
78	CCCNC(=O)C[C@H]1CC[C@@H]2[C@H](COC[C@@H](O)CN2C(=O)C2CCOCC2)O1	11	17
79	C[C@@H]1CN([C@@H](C)CO)C(=O)c2cccc(NS(=O)(=O)c3cn(C)cn3)c2O[C@H]1CN(C)C(=O)Nc1ccc2c(c1)OCO2	9	10

A portion of the library; rates above refer to the full screens.
